CSC inhib – blocks cancer stem cells; AID 2717; inhibition, % at 7.5 µM; cancer stem cell-like cells viability, luminescence; hit rate 1.1% among 300,000;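 active = mean at 75% or more and at least half the replicates too; inconclusive = mean and replicates disagree; tested in HMLE shEcad cells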;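 also: 0% = median of negative and 100% = median of positive control wells; the first replicate is given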
Env fusion inh – HIV envelope-mediated fusion inhibition | HeLa-JRFL Env/CEM21 cell fusion, luciferase | inhibition, % at 12.3 µM | hit rate 1.1% among 360,000 | AID 651610;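 active = mean replicate inhibition score of at least 50 and every replicate individually at or above 50; inconclusive = only one of the two criteria met; inactive = mean below 50 and not all replicates reaching 50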;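 also: 0% = plate neutral controls and 100% = maraviroc near 300 nM; one replicate is shown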
MT1-MMP act inh – blocks activation of human MT1-MMP | P50281 | HT1080 RFP-PRO-GFP cells, GFP/RFP ratio fluorescence, overnight; percent of plate control window, DMSO zero | GFP/RFP ratio change, % at 20 µM | hit rate 0.061% among 360,000 | AID 651647;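 active = GFP/RFP ratio change of at least 30% with cell ATP level not reduced by more than half and red fluorescence within 50% of control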; also: strong numbers were not always called active
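Material: RFP-PRO-GFP reporter HT1080 cells. Dosing: single-point 20 µM compound, 1% DMSO. Controls: DMSO and RFP-L50D-GFP cell wells. Timing: cells overnight before dosing, compound overnight, 37 °C, 5% CO2. Measure: GFP/RFP fluorescence ratio.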
eIF4H FP inh – inhibitors of RNA binding by human eIF4H; Q15056; eIF4H fluorescence polarization binding assay; inhibition, % at 35 µM; hit rate 0.94% among 290,000; AID 2012;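 active = 50% or more with normal probe brightness, or confirmed in later tests; inconclusive = above 50% with abnormal brightness, or retests that disagree; inactive = below 50% or failed in later tests; about a fifth of its hits are not listed in these tables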;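 also: calls also rest on retests at 20 µM and on dose response follow-up; 0% = protein and probe with vehicle and 100% = probe without protein; strong numbers were not always called active; many hits fall short of the cut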
PABP polyA inh – blocks human PABP binding to poly(A) RNA; P11940; fluorescence polarization; inhibition, % at 35 µM; hit rate 1% among 290,000; AID 2014;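 active = 50% or more with normal probe brightness, or confirmed in later tests; inconclusive = above 50% with abnormal brightness, or retests that disagree; inactive = below 50% or failed in later tests; about a fifth of its hits are not listed in these tables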;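 also: calls also rest on retests at 20 µM and on dose response follow-up; controls were probe without protein and protein plus probe with vehicle; some compounds called inactive have numbers as strong as hits; many hits fall short of the cut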
Target sequence (P11940 whole entry, looked up): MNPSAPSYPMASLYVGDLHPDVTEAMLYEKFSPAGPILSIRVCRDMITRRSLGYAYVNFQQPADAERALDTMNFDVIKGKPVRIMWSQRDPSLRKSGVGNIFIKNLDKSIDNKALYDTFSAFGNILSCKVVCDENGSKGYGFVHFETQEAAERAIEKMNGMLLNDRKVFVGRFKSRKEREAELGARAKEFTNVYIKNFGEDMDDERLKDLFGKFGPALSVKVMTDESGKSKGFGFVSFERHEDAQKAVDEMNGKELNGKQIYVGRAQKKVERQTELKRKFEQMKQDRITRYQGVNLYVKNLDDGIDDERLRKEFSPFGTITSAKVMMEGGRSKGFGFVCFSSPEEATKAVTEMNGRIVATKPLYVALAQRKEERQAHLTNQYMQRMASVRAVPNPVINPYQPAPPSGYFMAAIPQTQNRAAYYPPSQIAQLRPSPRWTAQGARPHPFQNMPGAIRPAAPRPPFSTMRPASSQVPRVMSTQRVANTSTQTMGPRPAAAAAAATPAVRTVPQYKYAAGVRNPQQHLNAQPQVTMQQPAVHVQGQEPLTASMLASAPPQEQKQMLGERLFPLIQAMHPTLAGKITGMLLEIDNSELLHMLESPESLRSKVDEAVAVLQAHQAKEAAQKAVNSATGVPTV
Rce1 inh – blocks yeast Ras-converting enzyme. hit rate 0.27% among 290,000. Q03530. calls only. yeast membranes, quenched prenylated peptide cleavage fluorescence. AID 2563;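 active = fall in fluorescence gain of 50% or more versus controls, with final raw signal at or below 3038400; inconclusive = same 50% fall but final raw signal above 3038400; inactive = fall in fluorescence gain under 50%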;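 also: plate controls were neutral control wells for no effect and wells lacking membranes for full effect; tested at 10 µM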
Target sequence (Q03530 whole entry, looked up): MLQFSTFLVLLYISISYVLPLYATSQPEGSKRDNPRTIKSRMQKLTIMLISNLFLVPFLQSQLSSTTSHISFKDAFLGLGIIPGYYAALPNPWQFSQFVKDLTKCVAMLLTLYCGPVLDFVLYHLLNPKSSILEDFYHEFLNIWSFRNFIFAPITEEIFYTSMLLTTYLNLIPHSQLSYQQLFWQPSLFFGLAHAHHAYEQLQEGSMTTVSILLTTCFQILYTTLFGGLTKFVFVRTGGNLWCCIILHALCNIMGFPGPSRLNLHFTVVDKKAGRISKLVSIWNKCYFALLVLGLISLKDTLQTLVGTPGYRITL
Yeast UUG start – modulators of start codon recognition fidelity in yeast. S. cerevisiae UUG-firefly luciferase reporter, luminescence/redox ratio. activity score, % at 18.7 µM. hit rate 0.13% among 350,000. AID 602363;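 active = replicate mean at a twofold rise or more, about +100% in these data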;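 also: firefly luciferase made from a UUG start codon reports start codon fidelity; reporter light over untreated wells divided by growth signal over untreated wells; some hits fall short of that in this replicate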
MT1-MMP act inh RFP – further read-out of MT1-MMP act inh, marked with its call; RFP signal change, %; measured here: RFP expression control read;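 0 = vehicle wells; hits needed this value within 50% of zero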
An asterisk follows results filed as active; i = inactive; u = inconclusive; x = no result given. An excerpt; count on the stated rates, not on these rows.

canonical_smiles	CSC inhib	Env fusion inh	MT1-MMP act inh	MT1-MMP act inh RFP	eIF4H FP inh	PABP polyA inh	Rce1 inh	Yeast UUG start
O=C(CSc1nc2ccccc2s1)NCCOc1ccccc1	-2.3	x	-4.4	2.5	-4.7	-15.9	i	-3.0
Fc1ccc(-n2ncc3c(SCc4cccnc4)ncnc32)cc1	30.8	-24.2	-8.1	-29.9	-1.3	-10.5	i	x
Cc1cccc(-c2noc(CNC(=O)c3ccco3)n2)c1	x	-5.3	1.8	3.8	0.1	-0.1	i	-7.4
COc1ccc(NC(=S)Nc2cccc(C(C)=O)c2)cc1OC	-8.9	20.1	3.9	2.4	4.3	-1.6	i	x
CC(C)(C)C(=O)NC(=S)Nc1ccccc1C(=O)NC1CCCCC1	-6.4	27.7	-2.3	0.5	-6.1	-4.3	i	x
COC(=O)C1=C(CS(=O)(=O)c2cc(OC)ccc2OC)NC(=O)NC1c1ccc(O)c(OC)c1 (centres undefined)	-1.7	3.2	-2.8	1.8	1.4	-4.2	i	-3.9
Cc1ccc(CN2CCSc3ccc(C(=O)NCc4ccco4)cc32)cc1	83.6*	17.1	-6.5	-3.6	-2.0	-1.7	x	-2.8
COc1cc(SC)ccc1C(=O)N1CCN(c2ccccc2OC)CC1	-7.7	-125.3	-14.9	-16.1	7.9	12.6	i	5.2
CC1CN(C2CCCCC2)C(=O)NC1=O (centres undefined)	x	-13.2	0.7	1.9	x	x	x	-20.4
CC(C)CNC(=S)N1CCC(NC(=O)c2ccco2)CC1	-4.6	14.9	-1.1	2.1	-7.8	-3.1	i	x
CCOc1cc(C#N)c(NC(=O)c2ccco2)cc1OCC	-9.3	-261.6	-2.4	-9.3	4.9	4.7	i	-22.5
O=C(NCc1ccc(Cl)cc1)c1ccc(Cn2cc(C(F)(F)F)ccc2=O)cc1	20.8	-16.5	4.1	-1.4	-6.9	-9.7	i	3.2
COC(=O)CCCCCN1C(=O)NC(C2CC2)C(C(=O)OCc2ccccc2)=C1C (centres undefined)	1.6	3.5	6.4	-12.4	x	x	i	-1.4
Cc1nc(-c2ccc(F)cc2)c(CC(=O)N(C)CC(=O)Nc2ccc(F)cc2)s1	-6.1	x	-2.9	-4.5	x	x	i	12.8
COC(=O)CSc1nnc(CNC(=O)c2cc(OC)cc(OC)c2)n1-c1ccc(F)cc1	x	11.9	-4.8	-1.0	0.4	7.0	i	x
Cc1cc2nc(-c3ccc(SCC(=O)N4CCOCC4)nc3)[nH]c2cc1C	8.0	-99.7	8.6	-6.1	-9.8	2.5	i	-4.3
COc1ccc(NC(=O)c2ccc(-c3ccccc3Cl)o2)cc1	18.7	-0.3	4.6	3.7	-4.0	5.0	i	-5.9
CC1(C)CC(=O)C2=C(C1)OC(/N=C/N1CCCC1)=C(C#N)C2c1ccccc1 (centres undefined)	-3.9	3.3	0.7	4.3	-5.6	0.2	i	x
CCc1nc2c(OCc3ccc(F)c(F)c3)cccn2c1N(C)C(=O)c1ccco1	x	17.6	-7.0	0.2	x	x	x	-16.4
CSC1=N/C(=C\c2ccccc2Cl)C(=O)N1N(C)C	13.0	-2.9	0.8	-1.2	-4.5	-8.5	i	-9.0
COc1ccc(-c2noc(CN(C)Cc3ccccc3)n2)c(OC)c1OC	x	-1.1	3.4	1.6	-4.5	-4.9	i	-9.7
O=C(CSc1ccc(F)cc1)NCC1(N2CCOCC2)CCCCC1	-7.6	-7.4	-3.8	0.8	x	x	i	-3.5
COc1ccc(OC)c(C(C)NC(=S)NC2CCCCC2)c1 (centres undefined)	12.7	-1.6	0.0	-1.4	-0.9	7.1	i	-27.8
Cc1ccc(C2CC(C(F)(F)F)n3nc(C(=O)NCc4c(C)nn(C)c4C)c(Cl)c3N2)cc1 (centres undefined)	-5.2	u	2.6	-16.7	-7.6	2.1	i	3.0
CCOC(=O)[C@H]1[C@H]2COc3ccc(C)cc3[C@@H]2N2C(=O)c3cc(F)c(F)cc3NC(=O)[C@@]12C	-15.6	6.0	-11.6	-3.4	x	x	x	-13.4
CCCN1CCC(NC(=O)Nc2ccc(F)cc2F)CC1	4.5	2.0	-1.6	5.2	0.2	1.9	i	-20.9
Cc1cc2c(sc3c(C)ccc(C)c32)c(C)n1	5.5	-11.1	-0.2	1.4	-9.6	9.3	i	-7.0
CSCCC(NS(=O)(=O)c1ccc(F)cc1)C(=O)NCc1ccc(S(N)(=O)=O)cc1 (centres undefined)	-9.0	9.7	12.8	7.7	-0.2	-0.8	i	-17.2
O=S(=O)(CCC1CCCCN1)c1ccccc1 (centres undefined)	-6.7	-2.9	3.4	4.6	-10.2	3.9	i	-19.6
CC(C)(C)n1ncc2c(=O)n(CC(=O)N3CCCCCC3)cnc21	3.5	x	2.3	3.4	2.2	6.4	i	-7.6
Cc1ccccc1-n1c(=O)n(Cc2ccc(C(=O)O)cc2)c(=O)c2[nH]cnc21	-9.4	25.0	-0.6	-1.3	-1.4	2.5	i	-4.1
O=C1COc2ccc(C(=O)COC(=O)CNS(=O)(=O)c3cccc(F)c3)cc2N1	x	-6.8	-0.9	1.6	x	x	x	-8.1
O=C(Nc1ccc(C(=O)O)cc1)Nc1ccc(F)cc1F	-3.5	5.3	-2.6	-3.3	-6.3	5.3	i	12.5
N#CNC(=Nc1ccccc1)SCc1ccc(C(=O)O)cc1	-1.8	-8.3	0.9	0.6	-6.4	2.0	i	x
O=C(O)CC(CC(=O)Nc1ccc(-n2ccc(C(F)(F)F)n2)cc1)c1ccccc1 (centres undefined)	-7.6	-2.5	2.8	2.6	-9.1	8.8	i	2.8
CC(=O)CSc1nc2c(c(=O)[nH]c(=O)n2C)n1CCCc1ccccc1	-8.6	-22.2	2.7	-1.1	-0.9	-5.0	i	-15.4
Cc1cc(/C=C2\SC(=Nc3ccccc3)NC2=O)c(C)n1-c1ccc(S(N)(=O)=O)cc1	55.5	x	-6.5	-0.7	-4.2	-4.9	i	-7.8
Cc1ccc(NS(=O)(=O)c2ccc(N/N=C/c3ccncc3)c([N+](=O)[O-])c2)c(C)c1	-15.4	-14.1	0.3	-0.4	1.2	4.0	i	x
Oc1c(CN2CCOCC2)cc(-c2ccccc2)cc1CN1CCOCC1	-14.5	11.6	-2.6	2.3	1.3	-4.2	i	x
Cc1ccc(S(=O)(=O)N2CCN(S(=O)(=O)c3ccc(C)cc3)C3OCCOC32)cc1 (centres undefined)	-0.8	-17.1	2.0	-0.4	0.7	-3.9	i	1.3
Oc1oc(-c2ccccc2)nc1C=Nc1cccc2ccccc12	29.2	x	-0.4	2.8	u	-2.3	i	-15.2
O=C(Nc1cccc(Cc2ccccc2)c1)Nc1cccc2[nH]c([C@@H]3O[C@H](CO)[C@@H](O)[C@H](O)[C@H]3O)nc12	x	-0.7	4.6	4.6	x	x	x	-23.2
CSc1ccc(S(=O)(=O)Nc2ccccc2C(=O)N2CCOCC2)cc1	x	-2.6	-2.7	1.5	-0.5	-4.6	i	12.2
Cc1ccc(-c2nc3ccc(Br)cn3c2Cc2ccccc2C(F)(F)F)cc1	x	-200.5	-0.3	1.6	x	x	x	-11.8
CCCCn1c2ccc(F)cc2c2nnc(SCCN3CCOCC3)nc21	7.3	22.5	-0.7	-1.7	-7.3	8.3	i	-3.3
CN(CC(=O)Nc1cc(Cl)ccc1C#N)C1CCS(=O)(=O)C1 (centres undefined)	-6.1	x	-1.9	5.3	x	x	x	-12.6
COc1ccc(NC(=O)C2CCC(=O)N2S(=O)(=O)c2ccc(C)cc2)cc1Cl (centres undefined)	-5.6	-34.7	5.3	5.3	-1.8	9.6	i	-9.0
COC(=O)c1cc(F)c(-n2cncn2)c(F)c1	-13.2	x	-4.6	1.5	0.8	1.6	i	-7.2
O=C(Cc1ccc(F)cc1)N1CCN=C1SCc1cccc([N+](=O)[O-])c1	-0.2	-10.3	7.2	4.9	-3.5	-4.8	i	x
CCOC(=O)C1=C(O)C(=O)N(CCCn2ccnc2)C1c1ccc(C)cc1 (centres undefined)	x	13.8	-2.5	5.4	-1.0	1.7	i	x

(listing goes on)
canonical_smiles	CSC inhib	Env fusion inh	MT1-MMP act inh	MT1-MMP act inh RFP	eIF4H FP inh	PABP polyA inh	Rce1 inh	Yeast UUG start
CC(=O)N1CCSc2ccc(S(=O)(=O)Nc3ccccc3C)cc21	8.1	4.2	1.1	-12.4	-6.8	-7.5	i	-14.2
O=S(=O)(c1ccc(Cl)cc1)N1CCCc2ccccc21	-5.5	19.4	-0.2	-0.6	-2.7	1.2	i	-22.1
CN(C=O)CP(=O)(O)CN1CCCCC1	x	x	x	x	-2.9	5.3	i	x
CC(C)(C)C(=O)CN1C(=O)NC(C)(Cc2ccc3c(c2)OCO3)C1=O (centres undefined)	2.3	-17.8	3.0	4.5	-8.3	9.3	x	-13.2
O=C(CC[C@H]1O[C@@H](n2cnc3c(NC(=O)c4ccccc4)ncnc32)[C@H](O)[C@@H]1O)NCC(c1ccccc1)c1ccccc1	x	9.0	1.2	1.4	x	x	x	7.8
CCCC(C)c1nc(C(N)=O)c2[nH]c(=O)n(-c3ccc(OC)cc3OC)c2n1 (centres undefined)	9.9	x	-3.5	0.3	-0.9	-4.4	i	-9.7
N#Cc1c(Cl)c(Cl)c2nnc(-c3ccc(Br)cc3)n2c1Cl	3.1	28.1	x	x	26.8	21.7	i	x
CCOc1ccccc1CN1CCNC(=O)C1CC(=O)NCCN1CCOC1=O (centres undefined)	-7.6	0.5	-5.2	-3.0	10.6	11.2	i	-20.5
Cc1ccc(S(=O)(=O)N2CCOC2CNC(=O)C(=O)NCc2ccc(Cl)cc2)cc1 (centres undefined)	11.1	24.9	4.9	-8.5	-11.8	-4.6	i	-21.4
C[C@]12C(=O)N(c3cccc(F)c3)C(=O)N1[C@@H]1c3ccccc3OC[C@@H]1[C@H]2c1ccccc1	-2.5	-15.9	-0.7	0.7	-9.8	-3.0	i	0.1
